High-throughput results: PubChem, Broad Institute
UUG fidelity: yeast start codon fidelity modulation; S. cerevisiae UUG-firefly luciferase reporter, luminescence/redox ratio; activity score, % at 18.7 µM; actives 0.13% (n = 350,000); AID 602363;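 active means replicate mean at a twofold rise or more, about +100% in these data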;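 further: firefly luciferase made from a UUG start codon reports start codon fidelity; reporter light over untreated wells divided by growth signal over untreated wells; some hits fall short of that in this replicate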
HIV Env fusion: blocks HIV Env-driven cell-cell fusion. actives 1.1% (n = 360,000). HeLa-JRFL Env/CEM21 cell fusion, luciferase. inhibition, % at 12.3 µM;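 active means mean replicate inhibition score of at least 50 and every replicate individually at or above 50; inconclusive means only one of the two criteria met; inactive means mean below 50 and not all replicates reaching 50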;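 further: 0% = plate neutral controls and 100% = maraviroc near 300 nM; one replicate is shown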
An asterisk follows results filed as active; ? = inconclusive; [ ] = dose if it differs, or a comment. Only part of the results is shown; rates above refer to the full screens.

Second line of a record – HIV Env fusion, UUG fidelity
[1] COc1cccc(S(=O)(=O)N[C@@H]2CC[C@@H](CC(=O)NCc3ccncc3)O[C@@H]2CO)c1
    9[16.7 µM], -18
[2] C/C=C/c1cnc2c(c1)C(=O)N([C@H](C)CO)C[C@H](C)[C@H](CN(C)C(=O)c1ccc3c(c1)OCO3)O2
    20[16.7 µM], -7
[3] C[C@H]1CCCCO[C@H](CN(C)Cc2ccc3c(c2)OCO3)[C@@H](C)CN([C@@H](C)CO)C(=O)c2cc(NC(=O)Nc3ccccc3)ccc2O1
    16[16.7 µM], 8
[4] C[C@H]1CN([C@@H](C)CO)C(=O)c2cc(NC(=O)CCC(F)(F)F)ccc2O[C@H]1CN(C)C(=O)Nc1cccc2ccccc12
    9[16.7 µM], 16
[5] Cc1ccc(S(=O)(=O)N[C@H]2CC[C@@H](CCNC(=O)C3CC3)O[C@@H]2CO)cc1
    -2[16.7 µM], 8
[6] COCCNC(=O)C[C@@H]1CC[C@H](NS(=O)(=O)c2ccc(C)cc2)[C@@H](CO)O1
    18[16.7 µM], -19
[7] C[C@@H]1CN([C@@H](C)CO)C(=O)c2cc(NC(=O)Nc3ccc4c(c3)OCO4)ccc2O[C@@H](C)CCCCO[C@@H]1CN(C)S(=O)(=O)c1ccc(F)cc1
    13[16.7 µM], -10
[8] COCc1cn(CC[C@@H]2CC[C@H](NC(=O)Cc3cccnc3)[C@@H](CO)O2)nn1
    -10[16.7 µM], -9
[9] C[C@@H]1CCCCO[C@@H](CN(C)C(=O)Nc2ccc(C(F)(F)F)cc2)[C@H](C)CN([C@@H](C)CO)C(=O)c2cc(NC(=O)c3ccccc3)ccc2O1
    -10[16.7 µM], -20
[10] C/C=C/c1cnc2c(c1)C(=O)N([C@H](C)CO)C[C@H](C)[C@@H](CN(C)Cc1ccc(F)cc1)O2
    16[16.7 µM], 18
[11] CNC[C@@H]1Oc2c(NC(=O)c3nc4ccccc4s3)cccc2C(=O)N([C@H](C)CO)C[C@H]1C
    13[16.7 µM], -6
[12] COc1ccc(NC(=O)N[C@H]2CC[C@H](CC(=O)NC3CCCCC3)O[C@@H]2CO)cc1
    2[16.7 µM], 9
[13] Cc1ccc(S(=O)(=O)Nc2ccc3c(c2)C(=O)N([C@H](C)CO)C[C@@H](C)[C@H](CN(C)C(=O)Nc2ccc(C(F)(F)F)cc2)OCCCC[C@H](C)O3)cc1
    ?, 18
[14] COc1ccc(S(=O)(=O)N(C)C[C@H]2OCCCC[C@@H](C)Oc3ccc(NC(=O)c4ccncc4)cc3C(=O)N([C@@H](C)CO)C[C@@H]2C)cc1
    -3[16.7 µM], 20
[15] Cc1ccc(S(=O)(=O)NCC[C@@H]2CC[C@H](NS(=O)(=O)c3ccccc3Cl)[C@@H](CO)O2)cc1
    2[16.7 µM], 17
[16] Cc1noc(C)c1S(=O)(=O)N(C)C[C@@H]1OCCCC[C@@H](C)Oc2ccc(NC(=O)NC3CCCCC3)cc2C(=O)N([C@@H](C)CO)C[C@H]1C
    -53[16.7 µM], 1
[17] CC(C)c1cn(CC[C@@H]2CC[C@H](NS(=O)(=O)c3ccccc3)[C@H](CO)O2)nn1
    -8[16.7 µM], -26
[18] O=C(N[C@H]1CC[C@H](CCNC(=O)C2CCCC2)O[C@H]1CO)c1ccccn1
    21[16.7 µM], 5
[19] C[C@@H]1CN([C@H](C)CO)S(=O)(=O)c2ccc(-c3ccc(C#N)cc3)cc2O[C@H]1CN(C)C
    -15[16.7 µM], -7
[20] C[C@@H]1CN([C@@H](C)CO)C(=O)Cc2cc(NC(=O)Cc3ccccc3)ccc2O[C@H]1CN(C)Cc1ccc(-c2ccccc2)cc1
    -26[16.7 µM], 17
[21] Cc1ccc(S(=O)(=O)Nc2ccc3c(c2)C(=O)N([C@H](C)CO)C[C@H](C)[C@@H](CN(C)Cc2ccc(Cl)c(Cl)c2)OCCCC[C@H](C)O3)cc1
    -14[16.7 µM], -3
[22] C/C=C/c1cnc2c(c1)C(=O)N([C@H](C)CO)C[C@@H](C)[C@@H](CN(C)C(=O)Cc1ccccc1)O2
    14[16.7 µM], 6
[23] O=C(C[C@@H]1CC[C@@H](NC(=O)c2ccc3c(c2)OCO3)[C@H](CO)O1)NCc1ccc(F)cc1
    -21[16.7 µM], -8
[24] C[C@@H]1CN([C@H](C)CO)C(=O)c2cc(NC(=O)Cc3ccccc3)ccc2O[C@@H](C)CCCCO[C@@H]1CN(C)C
    -3[16.7 µM], 23
[25] CC(C)NC(=O)N(C)C[C@@H]1Oc2ccc(NC(=O)Cn3cnnn3)cc2C(=O)N([C@@H](C)CO)C[C@H]1C
    -3[16.7 µM], -13
[26] CN1C(=O)c2cc(NC(=O)Cc3ccccc3)ccc2OC[C@H]2O[C@H](CC(=O)O)CC[C@H]21
    4[16.7 µM], 4
[27] C[C@@H]1CN([C@@H](C)CO)C(=O)c2cccc(NS(=O)(=O)c3cn(C)cn3)c2O[C@@H]1CN(C)CC1CC1
    18[16.7 µM], -8
[28] C[C@@H]1CN([C@@H](C)CO)C(=O)Cc2cc(NS(=O)(=O)c3ccc(Cl)cc3)ccc2O[C@H]1CN(C)CC1CCCCC1
    32[16.7 µM], 15
[29] C[C@@H]1CN([C@H](C)CO)C(=O)c2cc(-c3ccc(C#N)cc3)cnc2O[C@@H]1CN(C)C(=O)c1cccnc1
    -32[16.7 µM], 9
[30] Cc1ccc(S(=O)(=O)Nc2ccc3c(c2)C(=O)N([C@H](C)CO)C[C@@H](C)[C@H](CN(C)C(=O)NC2CCCCC2)OCCCC[C@@H](C)O3)cc1
    -42[16.7 µM], -1
[31] CC(C)C#Cc1ccc2c(c1)O[C@H](CN(C)C(=O)c1cccc(F)c1)[C@H](C)CN([C@H](C)CO)S2(=O)=O
    12[16.7 µM], 7
[32] C[C@H](CO)N1C[C@H](C)[C@@H](CN(C)Cc2ccc(C(=O)Nc3ccccc3N)cc2)Oc2c(NC(=O)c3ccncc3)cccc2C1=O
    -16[16.7 µM], -5
[33] CCC(=O)Nc1ccc2c(c1)C(=O)N(C)[C@H]1CC[C@H](CC(=O)NCC3CC3)O[C@H]1CO2
    6[16.7 µM], 4
[34] C[C@@H]1CN([C@@H](C)CO)C(=O)c2cc(NC(=O)Nc3ccc(C(F)(F)F)cc3)ccc2O[C@@H](C)CCCCO[C@@H]1CN(C)S(=O)(=O)c1cccs1
    -12[16.7 µM], -13
[35] COc1ccc(S(=O)(=O)Nc2ccc3c(c2)C(=O)N([C@H](C)CO)C[C@H](C)[C@H](CN(C)S(=O)(=O)c2ccc(OC)cc2)OCCCC[C@@H](C)O3)cc1
    -23[16.7 µM], -11
[36] C[C@@H]1CN([C@H](C)CO)C(=O)Cc2cc(NC(=O)C3CCCCC3)ccc2O[C@@H]1CN(C)Cc1ccc(C(F)(F)F)cc1
    44[16.7 µM], 8
[37] C[C@@H]1CN([C@@H](C)CO)C(=O)c2cc(NS(C)(=O)=O)ccc2O[C@@H](C)CCCCO[C@H]1CN(C)C(=O)CCC(F)(F)F
    2[16.7 µM], 12
[38] C[C@H](CO)N1C[C@H](C)[C@@H](CN(C)S(=O)(=O)c2cn(C)cn2)Oc2ccc(NC(=O)Nc3ccc(F)cc3)cc2C1=O
    26[16.7 µM], 2
[39] Cc1noc(C)c1S(=O)(=O)Nc1ccc2c(c1)C(=O)N([C@@H](C)CO)C[C@H](C)[C@H](CN(C)C(=O)CCCN(C)C)OCCCC[C@H](C)O2
    5[16.7 µM], 3
[40] CCCN(C)C[C@H]1OCCCC[C@@H](C)Oc2ccc(NC(=O)CCC(F)(F)F)cc2C(=O)N([C@H](C)CO)C[C@H]1C
    -29[16.7 µM], 2
[41] Cc1ccc(-c2cnc3c(c2)C(=O)N([C@@H](C)CO)C[C@@H](C)[C@@H](CN(C)C(=O)CN(C)C)O3)cc1
    -20[16.7 µM], -4
[42] COCC#Cc1cnc2c(c1)C(=O)N([C@@H](C)CO)C[C@H](C)[C@H](CN(C)S(=O)(=O)c1ccccc1)O2
    1[16.7 µM], 0
[43] C[C@@H]1CCCCO[C@H](CN(C)C(=O)Cc2ccccc2)[C@@H](C)CN([C@H](C)CO)C(=O)c2cc(NC(=O)Nc3ccc(F)cc3)ccc2O1
    -26[16.7 µM], 4
[44] COc1ccc(S(=O)(=O)Nc2ccc3c(c2)C(=O)N([C@@H](C)CO)C[C@@H](C)[C@H](CN(C)C(=O)c2ccncc2)OCCCC[C@@H](C)O3)cc1
    2[16.7 µM], -11
[45] C[C@H]1CCCCO[C@H](CN(C)C(=O)CCC(F)(F)F)[C@@H](C)CN([C@@H](C)CO)C(=O)c2cc(NC(=O)NC3CCCCC3)ccc2O1
    36[16.7 µM], 17
[46] C[C@H](CO)N1C[C@H](C)[C@H](CN(C)C(=O)Nc2ccccc2)Oc2ccc(NC(=O)Cc3ccccc3)cc2C1=O
    -19[16.7 µM], 6
[47] O=C(N[C@H]1CC[C@H](CCn2cc(C3(O)CCCC3)nn2)O[C@H]1CO)C1CCOCC1
    -17[16.7 µM], 3
[48] Cn1cnc(S(=O)(=O)N[C@@H]2C=C[C@H](CC(=O)NCC3CCCCC3)O[C@@H]2CO)c1
    -1[16.7 µM], 5
[49] COc1ccc(S(=O)(=O)N(C)C[C@@H]2OCCCC[C@H](C)Oc3ccc(NC(=O)Cc4ccccc4)cc3C(=O)N([C@H](C)CO)C[C@H]2C)cc1
    -3[16.7 µM], -7
[50] C[C@@H]1CN([C@@H](C)CO)S(=O)(=O)c2ccc(/C=C/c3ccccc3)cc2O[C@H]1CN(C)C
    27[16.7 µM], 10
[51] C[C@H]1CN([C@@H](C)CO)S(=O)(=O)c2ccc(-c3ccncc3)cc2O[C@@H]1CN(C)Cc1ccccn1
    1[16.7 µM], -4
[52] C[C@@H]1CN([C@@H](C)CO)C(=O)c2cc(NS(=O)(=O)c3cn(C)cn3)ccc2O[C@@H](C)CCCCO[C@@H]1CN(C)C(=O)CCC(F)(F)F
    -11[16.7 µM], -10
[53] C[C@H](CO)N1C[C@H](C)[C@@H](CN(C)Cc2ccc(Oc3ccccc3)cc2)Oc2c(NC(=O)C3CCOCC3)cccc2C1=O
    13[16.7 µM], 4
[54] COc1ccc(S(=O)(=O)Nc2ccc3c(c2)C(=O)N([C@@H](C)CO)C[C@@H](C)[C@@H](CN(C)Cc2ccc(Oc4ccccc4)cc2)O3)cc1
    11[16.7 µM], 15
[55] C[C@@H]1CCCCO[C@H](CN(C)S(=O)(=O)c2ccccc2)[C@H](C)CN([C@H](C)CO)C(=O)c2cc(NC(=O)Cc3ccccc3)ccc2O1
    6[16.7 µM], 12
[56] Cc1noc(C)c1NC(=O)N(C)C[C@H]1Oc2ccc(NC(=O)CCN3CCOCC3)cc2CC(=O)N([C@H](C)CO)C[C@@H]1C
    -2[16.7 µM], 1
[57] C[C@@H]1CN([C@@H](C)CO)S(=O)(=O)c2ccc(C3=CCCC3)cc2O[C@H]1CN(C)C(=O)Nc1ccc2c(c1)OCO2
    -3[16.7 µM], 10
[58] C[C@H]1CN([C@@H](C)CO)C(=O)c2cc(NC(=O)CCC(F)(F)F)ccc2O[C@H]1CN(C)C(=O)Nc1ccccc1
    16[16.7 µM], 1
[59] C[C@@H]1CN([C@@H](C)CO)C(=O)c2cc(C3=CCCCC3)cnc2O[C@@H]1CN(C)Cc1ccccc1C(=O)O
    -15[16.7 µM], 5
[60] COc1ccccc1NC(=O)N[C@@H]1C=C[C@@H](CC(=O)N[C@H](C)c2ccccc2)O[C@@H]1CO
    6[16.7 µM], -4

Quoted from the listing:
For HIV Env fusion, C[C@H](CO)N1C[C@H](C)[C@@H](CN(C)Cc2ccc(Oc3ccccc3)cc2)Oc2c(NC(=O)C3CCOCC3)cccc2C1=O has the entry 13[16.7 µM]
For UUG fidelity, C[C@H](CO)N1C[C@H](C)[C@H](CN(C)C(=O)Nc2ccccc2)Oc2ccc(NC(=O)Cc3ccccc3)cc2C1=O has the entry 6

Next compounds.
Second line of a record – HIV Env fusion, UUG fidelity
[61] O=C(Cc1ccncc1)Nc1ccc2c(c1)[C@H]1C[C@@H](CC(=O)NC3CCCCC3)O[C@@H](CO)[C@H]1O2
    1[16.7 µM], -10
[62] C[C@H](O)C#Cc1ccc2c(c1)O[C@@H](CN(C)Cc1cccnc1)[C@H](C)CN([C@@H](C)CO)S2(=O)=O
    7[16.7 µM], -6
[63] CC(C)C#Cc1ccc2c(c1)O[C@H](CN(C)C(=O)CC1CC1)[C@@H](C)CN([C@@H](C)CO)S2(=O)=O
    -21[16.7 µM], -5
[64] C[C@H]1CN([C@@H](C)CO)S(=O)(=O)c2ccc(C3=CCCCC3)cc2O[C@@H]1CN(C)Cc1cncnc1
    21[16.7 µM], -10
[65] Cc1noc(C)c1S(=O)(=O)Nc1ccc2c(c1)C(=O)N([C@@H](C)CO)C[C@@H](C)[C@@H](CN(C)C(=O)Cc1ccccc1)OCCCC[C@@H](C)O2
    -36[16.7 µM], 11
[66] COc1ccc(S(=O)(=O)Nc2ccc3c(c2)C(=O)N([C@H](C)CO)C[C@H](C)[C@H](CN(C)S(=O)(=O)c2cccs2)OCCCC[C@@H](C)O3)cc1
    14[16.7 µM], 24

Some of these compounds in order of the UUG fidelity value, high to low.
item | Compound | HIV Env fusion | UUG fidelity
11 | CNC[C@@H]1Oc2c(NC(=O)c3nc4ccccc4s3)cccc2C(=O)N([C@H](C)CO)C[C@H]1C | 13[16.7 µM] | -6
35 | COc1ccc(S(=O)(=O)Nc2ccc3c(c2)C(=O)N([C@H](C)CO)C[C@H](C)[C@H](CN(C)S(=O)(=O)c2ccc(OC)cc2)OCCCC[C@@H](C)O3)cc1 | -23[16.7 µM] | -11
34 | C[C@@H]1CN([C@@H](C)CO)C(=O)c2cc(NC(=O)Nc3ccc(C(F)(F)F)cc3)ccc2O[C@@H](C)CCCCO[C@@H]1CN(C)S(=O)(=O)c1cccs1 | -12[16.7 µM] | -13
